KCNQ2 pot = potentiators of rat KCNQ2 potassium channel; O88943; CHO-K1 KCNQ2, FluxOR thallium flux fluorescence; active compounds read high; B-score at 10 µM; 310,000 tested, 0.54% active;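 active = fluorescence ratio B-score at least 3 SD of library B-scores, with initial fluorescence B-score within 3 SD, cut at about 5.3 in these data; same plate scores as AID 2156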;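 note: B-score of peak minus minimum over baseline fluorescence ratio after K+ and Tl+ stimulus; positive B-score means potentiation of KCNQ2 with more thallium influx and brighter signal; only the inactives scoring about 0 or higher are listed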
Target sequence (O88943 whole entry, looked up): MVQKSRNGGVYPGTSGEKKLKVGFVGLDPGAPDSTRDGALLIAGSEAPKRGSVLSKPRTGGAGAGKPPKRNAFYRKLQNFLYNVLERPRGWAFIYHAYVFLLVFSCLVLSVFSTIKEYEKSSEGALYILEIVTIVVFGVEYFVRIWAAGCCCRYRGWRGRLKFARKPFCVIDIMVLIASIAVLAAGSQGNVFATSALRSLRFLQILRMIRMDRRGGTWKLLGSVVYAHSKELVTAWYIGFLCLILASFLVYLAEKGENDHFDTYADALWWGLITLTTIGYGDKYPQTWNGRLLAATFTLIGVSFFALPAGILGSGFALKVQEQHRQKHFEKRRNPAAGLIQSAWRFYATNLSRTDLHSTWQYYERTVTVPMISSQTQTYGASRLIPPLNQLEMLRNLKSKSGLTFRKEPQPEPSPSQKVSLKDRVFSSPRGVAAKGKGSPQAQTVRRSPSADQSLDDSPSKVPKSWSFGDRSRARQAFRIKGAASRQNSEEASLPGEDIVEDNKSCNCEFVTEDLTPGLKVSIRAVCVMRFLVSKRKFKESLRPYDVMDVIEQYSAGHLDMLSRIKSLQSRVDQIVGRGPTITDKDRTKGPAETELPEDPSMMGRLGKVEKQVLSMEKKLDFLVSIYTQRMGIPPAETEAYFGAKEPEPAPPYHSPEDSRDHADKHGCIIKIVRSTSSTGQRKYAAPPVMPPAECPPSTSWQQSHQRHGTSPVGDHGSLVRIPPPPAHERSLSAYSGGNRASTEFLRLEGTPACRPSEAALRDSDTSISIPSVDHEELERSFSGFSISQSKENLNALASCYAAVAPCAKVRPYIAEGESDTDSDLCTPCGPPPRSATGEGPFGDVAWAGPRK
KCNQ2 pot baseline = also measured in KCNQ2 pot; calls as there; B-score; compound at 10 µM; measured here: initial fluorescence intensity artifact check;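 brightness before thallium and not channel activity; 0 = typical well and far values either way flag optical interference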
* hit, by the source's call. The list is partial; rates above refer to the full screens.

SMILES	KCNQ2 pot	KCNQ2 pot baseline
Cc1ccc(S(=O)(=O)Nc2ccc3c(c2)OCCO3)cc1	0.01	-0.02
O=C1/C(=C/c2ccc3c(c2)OCO3)Oc2cc(OCC(=O)N3CCC[C@H]3C(=O)O)ccc21	0.37	2.2
O=C(O)/C=C/c1cn(-c2ccccc2)nc1-c1cccs1	2.2	-0.64
Brc1cccc(OCCCCn2cncn2)c1	1.9	-1.3
CCn1c(CCn2c3ccccc3c3ccccc32)n[nH]c1=S	1.5	-1
O=S(=O)(Nc1ccccc1Cl)c1ccc(F)cc1	0.86	0.55
O=C(Nc1ccc2nc(-c3ccccn3)c(-c3ccccn3)nc2c1)N1CCOCC1	0.01	0.08
Cc1cccc(C2N(c3nccs3)C(=O)C3CCCN32)c1 (centres undefined)	2.2	-1.5
COc1cc(/C=C2\SC(=O)N(Cc3ccc(F)cc3)C2=O)cc([N+](=O)[O-])c1O	1.2	-1.6
CS/C(=N\NC(N)=O)c1ccccc1	0.58	0.01
O=C(N/C(=C/c1cn(-c2ccccc2)nc1-c1ccccc1)C(=O)N1CCOCC1)c1ccc(Cl)cc1Cl	1.1	-0.82
Cc1cc(C)n(CC(=O)Nc2ccc3c(c2)OCO3)c(=O)c1C#N	0.11	0.77
COc1ccc(C(=O)/C(C#N)=N/Nc2ccc([N+](=O)[O-])cc2)cc1	1.4	-1.2
O=[N+]([O-])c1ccc(/C=N/Nc2ncccc2[N+](=O)[O-])s1	0.21	1.4
COc1cccc(CNCCO)c1OCc1ccccc1	0.04	0.42
CN(CCCN1CCCCC1)C(=O)c1cc(COc2ccc(F)cc2F)on1	1.4	-1.7
COc1ccc(C(C)=O)cc1CSc1nc(C)cc(C)n1	0.02	1.3
COc1ccc(-c2nn(-c3ccccc3)cc2C(=O)N2CCOCC2)cc1	0.06	-0.09
C=CCn1c(COc2ccccc2F)nnc1SCC(=O)N1CC(=O)Nc2ccccc21	0.01	-0.45
Cc1cn(-c2cc(C(=O)Nc3ccc(C)c(NC(=O)C(=O)c4c[nH]c5ccccc45)c3)cc(C(F)(F)F)c2)cn1	0.03	0.53
CC(=O)N(C)c1ccc(N=Nc2c(C)[nH]n(C(N)=S)c2=O)cc1	0.01	2.7
COc1ccc(OCC(=O)Nc2ccc3c(c2)nc(CCNC(C)=O)n3C)cc1	0.27	0.24
COc1ccc(-n2c(=S)[nH]c3cc(C(=O)O)ccc3c2=O)cc1	1.2	-0.96
CN(C)C(CNC(=O)CSc1nnc(-c2ccco2)o1)c1ccccc1 (centres undefined)	0.87	-0.64
CCOc1ccc(C(=O)C(C)OC(=O)c2cnc(C)cn2)cc1 (centres undefined)	1.9	-2.9
Cc1ccc(S(=O)(=O)N2CCC(=O)CC2)cc1	0.38	-3.3
C(=N\Nc1cc(N2CCCCC2)ncn1)/c1ccco1	1	1.1
CCCCNC(=O)C1CCC(CNS(=O)(=O)c2c(C)cc(C)cc2C)CC1 (centres undefined)	0.19	-0.01
CCCn1nc(NC(=O)c2cccs2)c2cc3cc(C)ccc3nc21	1.7	-0.76
CC(=O)N1NC(=Nc2ccccc2)SC1(C)C	3.1	2
Cc1noc(NS(=O)(=O)c2ccc(NC(=O)C(C)C)cc2)c1C	0.16	-1.7
CC(C)c1ccc(NC(=O)CSc2nc(=O)n(CCN3CCOCC3)c3c2CCC3)cc1	0.9	0.43
CC(O)C(NS(=O)(=O)c1ccc(Cl)cc1)C(=O)OCc1cc([N+](=O)[O-])cc2c1OCOC2 (centres undefined)	0.23	-1.1
COc1ccc(S(=O)(=O)N(C)CC(=O)NCCN2CCOCC2)cc1Cl	0.35	0.88
CN(C)c1ccc(NC(=O)c2sc(SCC(=O)Nc3nccs3)nc2N)cc1	0.05	0.49
O=C(O)c1c[nH]c2cc(C(F)(F)F)ccc2c1=O	1.4	0.5
COc1ccc2cc(CCNC(=O)c3ccco3)c(=O)[nH]c2c1	0.19	0.08
CC(=O)c1cccc(N2C(=NC(=O)C3CC3)SC3CS(=O)(=O)CC32)c1 (centres undefined)	2.8	0.83
O=S(=O)(/N=C(/Nc1cc(N2CCOCC2)ncn1)c1ccccc1)c1ccccc1	0.55	1.2
COc1ccccc1N1CCN(C(=O)CCC(=O)Nc2nnc(CC(C)C)s2)CC1	0.78	-0.21
CCOC(=O)C1=C(C)Nc2ccccc2N=C1NC(=O)/C=C/c1ccc(OC)cc1OC	0.56	-1.9
CC(=O)N1CCC(=NNC(=O)CSc2cc(C)c(Br)cc2C)CC1	1.1	-0.9
Cc1ccc(S(=O)(=O)N(C)c2ccc(C(=O)Nc3ccccn3)cc2)cc1	1.4	-1.5
CCCCn1c(N)c(N(CC)C(=O)Cc2ccc(S(=O)(=O)N3CCOCC3)s2)c(=O)[nH]c1=O	0.45	0.28
O=C(N/N=C/c1ccccc1C(=O)O)c1ccc(COc2cccc3cccnc23)cc1	0.47	-0.97
Cc1cccc2cc(CN(CCN3CCCC3)C(=O)NC3CCCCC3)c(=O)[nH]c12	0.7	0.65
CC1(C)CC(=O)C=C(NC2CC(C)(C)NC(C)(C)C2)C1	0.08	5.7
CCN(c1ccccc1)S(=O)(=O)c1ccc(OC)c(NS(=O)(=O)c2cccs2)c1	2.3	-0.75
CC1CCc2sc(C(=O)N=Nc3c(O)[nH]c4ccccc34)cc2C1 (centres undefined)	0.08	0.13
O=C(CN1CCN(c2ccc(F)cc2)CC1)Nc1ccc(F)c(F)c1	0.68	1.3

Copied from the list:
Result for CC1(C)CC(=O)C=C(NC2CC(C)(C)NC(C)(C)C2)C1 under KCNQ2 pot: 0.08
Result for CCCCn1c(N)c(N(CC)C(=O)Cc2ccc(S(=O)(=O)N3CCOCC3)s2)c(=O)[nH]c1=O under KCNQ2 pot baseline: 0.28
Result for CCN(c1ccccc1)S(=O)(=O)c1ccc(OC)c(NS(=O)(=O)c2cccs2)c1 under KCNQ2 pot: 2.3
Result for O=C(CN1CCN(c2ccc(F)cc2)CC1)Nc1ccc(F)c(F)c1 under KCNQ2 pot: 0.68
Result for CC(=O)N1CCC(=NNC(=O)CSc2cc(C)c(Br)cc2C)CC1 under KCNQ2 pot baseline: -0.9
Result for Cc1ccc(S(=O)(=O)N(C)c2ccc(C(=O)Nc3ccccn3)cc2)cc1 under KCNQ2 pot baseline: -1.5

Continued.
SMILES	KCNQ2 pot	KCNQ2 pot baseline
CC(=O)Nc1ccc(Br)cc1C(=O)C(=O)O	1.5	-0.01
CC(=O)Nc1ccc(OCC(=O)NCc2ccc3c(c2)OCO3)cc1	0.41	1
O=S(=O)(Nc1nc(-c2sccc2Cl)cs1)c1cc(Cl)ccc1Cl	19*	5.5*
O=C(CC1C(=O)NCCN1C(=O)Nc1ccccc1)Nc1ccc2c(c1)OCO2 (centres undefined)	0.59	0.17
BrCCOCCOc1ccc2ccccc2c1	1.8	0.28
O=C(CNC(=O)c1ccccc1Cl)N/N=C/C=C/c1ccccc1	0.49	0.92
Cc1ccc(S(=O)(=O)CC(=O)Nc2ccc(F)c(F)c2F)cc1	0.47	-0.01
Cc1cc(C)nc(Nc2n[nH]c(Cc3ccccc3)n2)n1	1.3	-0.11
S=C(Nc1ccc(Cl)cc1)N(CCCN1CCOCC1)Cc1ccco1	0.97	0.87
COc1ccc(OCC(=O)NN2Cc3ccccc3C2=N)cc1	1.1	0.36
CC(=O)N1CCCc2ccc(NS(=O)(=O)c3ccc(C)cc3)cc21	0.01	-3
O=C(NCCN1CCCCCC1)C1CC(=O)N(CCc2ccccc2)C1 (centres undefined)	1.1	-0.67
N#Cc1ccc(OCC(=O)OCC(=O)Nc2ccc(N3CCOCC3)cc2)cc1	1.2	-0.5
O=C(CNC(=O)C1COc2ccccc2O1)N/N=C\c1cccc(O)c1 (centres undefined)	1.1	1.4
CN(C(=O)c1ccc(OC2CCN(Cc3ccccn3)CC2)cc1)C1CCCCC1	0.7	0
Cc1ccn2cc(CCNC(=O)COc3ccccc3)nc2c1	0.85	0.03
CCc1ccc(N2C(=O)CN(CC(=O)OC)C2=S)cc1	0.99	2
O=C(CCS(=O)(=O)c1ccccc1)N1CCN(c2cccc(C(F)(F)F)c2)CC1	0.96	0.01
O=C(NCc1ccc2c(c1)OCO2)C1CCCN1S(=O)(=O)c1ccc(F)cc1 (centres undefined)	0.02	1.7
CCOc1ccc(C(=O)NC2CCN(C(=O)Nc3ccc(F)cc3)CC2)cc1	0.81	0.11
CCNC(=O)N1CCC(n2nccc2NC(=O)CCCc2ccccc2)CC1	0.8	-1.5
CN1CCN(S(=O)(=O)c2ccc(NC(=O)COc3ccccc3)cc2)CC1	0.48	1
COc1ccc2cc3cc(C(=O)N4CCN(c5ccccn5)CC4)oc3nc2c1	1.9	-0.14
CCC1CCCCN1S(=O)(=O)c1ccc(NC(=O)c2cccnc2)cc1 (centres undefined)	2.7	-0.03
Cc1ccc(C)c(NC(=O)CCc2ccc(S(=O)(=O)NC3CCCCC3)cc2)c1	1.1	0.89
Cc1ccc(C(=O)N/C(=C\c2ccccc2)C(=O)NCc2cccnc2)cc1	0.91	-2.2
COC(=O)C1CCN(C(c2ccc(OC)c(OC)c2)c2sc3nc(C)nn3c2O)CC1 (centres undefined)	0.73	-2.4
CCCC(=O)NC(c1ccccc1)c1ccc2cccnc2c1O (centres undefined)	1.3	0.45
O=C(COC(=O)c1ccc(O)cc1)Nc1cccc(S(=O)(=O)N2CCCCC2)c1	0.68	-0.12
OC(CNCc1ccccc1)Cn1ccc2ccccc21 (centres undefined)	1.6	-0.26
Cn1cc(CN2CCC(C(=O)Nc3cccc(-c4cscn4)c3)CC2)cn1	0.56	1.2
CCOC(=O)N1CCC(Nc2nc(OC)nc(OC)n2)CC1	0.27	-0.2
O=C(CCCCn1c(=O)[nH]c2ccsc2c1=O)NCCc1ccccc1	1.2	-0.01
O=C(Nc1ccc(C(=O)Nc2ccccc2Cl)cc1)c1cccnc1	2.4	0.05
CC1(C)CC2(CCO1)CNC(=O)O2 (centres undefined)	0.05	-1.7
CCSc1nnc(NC(=O)c2cnccn2)s1	0.2	-0.35
CCOC(=O)CCCNC(=O)COC(=O)c1cc(Br)c(Br)s1	0.27	0.09
COc1ccc(CN2CC(C(=O)NCCCN3CCN(Cc4ccccc4)CC3)CC2=O)cc1 (centres undefined)	1.8	-2.5
N#Cc1ccc(S(=O)(=O)NC2CCN(Cc3ccccc3)CC2)cc1	0.12	0.01
O=c1sc2ccccc2n1COc1ccc(Cl)cc1	2.9	-1.1
CCN(CC)C1CCN(C(=O)c2cc(COc3ccc(-n4cncn4)cc3)on2)C1 (centres undefined)	0.14	0.03
O=C1Nc2ccccc2C12OCC1(CO2)COC2(OC1)C(=O)Nc1ccccc12 (centres undefined)	1.5	-0.04
CC(C)Cn1c(-c2nn(C)cc2Cl)n[nH]c1=S	0.64	1.7
CC(NC(=O)c1ccc2c(c1)OCO2)c1ccccc1 (centres undefined)	3.3	-0.54
Cc1ccc(Nc2nnc(-c3ccc4c(c3)OCO4)o2)c(C)c1	0.74	-2.1
O=C(NCCC1=CCCCC1)c1cnccn1	0.46	0.15
Cc1ccsc1C(=O)NNC(=S)NCC(C)C	0.8	-0.48
Cc1ccc(C(=O)Nc2cccc([N+](=O)[O-])c2)cc1S(=O)(=O)Nc1cccc(C(=O)O)c1	0.77	-0.61
COc1ccc(NC(=S)NC2CCCC2)c(OC)c1	1.3	-0.42
C/C(=N\NC(=O)C(=O)Nc1ccc(C)c(Cl)c1)c1ccncc1	0.49	0.67
More records
SMILES	KCNQ2 pot	KCNQ2 pot baseline
N#Cc1ccc(Oc2nc(C(N)=O)cc(-c3ccccc3)n2)cc1	0.65	0.05
Cc1nnc(SCC(=O)N2CCCC(N3CCN(c4ccc(F)cc4)CC3)C2)o1 (centres undefined)	0.2	1.3
Cc1ccc(-c2ccc(C(=O)O)o2)cc1Cl	1	-0.8
CC(=O)Nc1sc(C)c(C)c1C(=O)OCC(=O)N(C)C1CCS(=O)(=O)C1 (centres undefined)	1.2	0.36
Cc1ncc([N+](=O)[O-])n1CCOC(=O)NC(Nc1ccc(F)cc1)C(Cl)(Cl)Cl (centres undefined)	0.63	0.31
CCc1nc2ccccc2nc1N1CCN(S(=O)(=O)c2ccc(Cl)cc2)CC1	0.49	0.23
Cc1ccc(Nc2nc(-c3ccccc3)cs2)nc1	0.26	2.5
c1ccc(Oc2cc(-n3cncn3)ncn2)cc1	0.02	0.12
O=C(N1CCOCC1)N(Cc1ccco1)CC1CCCO1 (centres undefined)	0.2	0.17
O=C(COC(=O)c1ccccc1Cl)Nc1ccc2[nH]c(=O)[nH]c2c1	0.67	-1.4
O=C(NC(=S)Nc1cccc(S(=O)(=O)NC2=NCCC2)c1)c1cc(-c2ccco2)nc2ccccc12	1.1	0.02
O=C(O)c1c[nH]c(=S)n1-c1ccc(F)cc1	0.36	-1.8
NC(=O)C1=C[C@H](c2ccc(Br)cc2)C[C@H](OCc2ccc(CO)cc2)O1	0.05	0.66
CCC(NC(=O)CCc1nnc(-c2cc(C)on2)o1)C12CC3CC(CC(C3)C1)C2 (centres undefined)	2.5	-1.9
O=C(CSc1nc(=O)n(CCCN2CCOCC2)c2c1CCCC2)Nc1ccc(F)c(F)c1	0.14	-0.67
CCOC(=O)CNC(=O)c1sc(NC(=O)c2ccccc2)nc1C	0.49	-0.43
C=CCNc1nc2ccccc2nc1NS(=O)(=O)c1ccc(Cl)cc1	0.91	0.08
COC(C#CCCN(C)C)(c1ccccc1)c1ccccc1	0.79	-1.7

6 records picked at random from the list so far:
SMILES	KCNQ2 pot	KCNQ2 pot baseline
O=S(=O)(Nc1ccccc1Cl)c1ccc(F)cc1	0.86	0.55
COc1ccc2cc(CCNC(=O)c3ccco3)c(=O)[nH]c2c1	0.19	0.08
O=C(CSc1nc(=O)n(CCCN2CCOCC2)c2c1CCCC2)Nc1ccc(F)c(F)c1	0.14	-0.67
CCCCNC(=O)C1CCC(CNS(=O)(=O)c2c(C)cc(C)cc2C)CC1 (centres undefined)	0.19	-0.01
COc1ccc(CN2CC(C(=O)NCCCN3CCN(Cc4ccccc4)CC3)CC2=O)cc1 (centres undefined)	1.8	-2.5
O=C1Nc2ccccc2C12OCC1(CO2)COC2(OC1)C(=O)Nc1ccccc12 (centres undefined)	1.5	-0.04
